# Compound activity (PubChem BioAssay)
# Sa growth 42C = S. aureus growth inhibition at 42 and 30 °C, primary screen, LtaS inhibitor project, RN4220, two temperatures. OD600, 20 h, 42 °C; active compounds read low. relative growth, % (test concentration not listed). 170,000 tested, 0.53% active. AID 720641, 2013;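 active means growth at 42 °C up to 50% and 20 or more points under that at 30 °C, or under 10% at both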;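 further: 300 nL library stock went into each well; scaled to the means of positive and negative controls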
# GIV Gai3 FP = inhibitors of GIV peptide binding to Galpha-i3, primary screen, biochemical, fluorescence polarization, FITC-GIV GBA peptide, rat Galphai3. AID 1224905, 2016. 210,000 tested, 0.42% active. percent of control (FP), % (test concentration not listed). Guanine nucleotide-binding protein G(i) subunit alpha-3 (Rattus norvegicus), P08753. 90 min; active compounds read low; scaled: aluminum fluoride 0%, vehicle 100%;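 active means replicate mean at 85% of control or lower, very high polarization wells dropped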;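 further: lower values mean more displacement of the GIV peptide from Galpha-i3; wells of about 15 µL received 100 nL stock; the first replicate is given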
# Target sequence (P08753 whole entry, looked up): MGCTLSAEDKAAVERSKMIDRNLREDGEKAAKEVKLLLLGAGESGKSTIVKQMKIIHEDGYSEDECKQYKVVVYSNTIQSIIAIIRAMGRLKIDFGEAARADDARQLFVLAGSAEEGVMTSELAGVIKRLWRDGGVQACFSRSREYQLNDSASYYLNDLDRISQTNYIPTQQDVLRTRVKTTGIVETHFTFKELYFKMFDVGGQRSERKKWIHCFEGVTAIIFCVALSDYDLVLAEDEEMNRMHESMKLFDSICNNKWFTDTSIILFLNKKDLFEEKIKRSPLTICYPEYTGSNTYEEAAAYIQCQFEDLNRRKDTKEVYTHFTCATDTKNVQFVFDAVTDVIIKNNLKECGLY
# HCMV NEC inh = inhibitors of HCMV UL50-UL53 interaction, biochemical, HTRF | 190,000 tested, 0.15% active | HCMV UL50-UL53 nuclear egress complex (human cytomegalovirus) | inhibition, % (no concentration beside the values) | AID 1918969, 2023 | normalized percent inhibition;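 active means both replicates at 50% or more, plus weaker picks with an unusually low signal ratio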;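 further: stock transfer was 100 nL into about 20 µL; 0% = negative control wells and 100% = wells with untagged competitor protein; inactives centre near -12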
# Sa growth 42C second temp = also measured in Sa growth 42C; calls as there; relative growth, %; measured here: growth at 30 °C;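 optical density after 20 h as mean of two plates; 100% = untreated growth and lower means inhibition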
# * hit, by the source's call; . = not tested or not shown; & = joins results of further samples.
# Each structure is followed by: Sa growth 42C	Sa growth 42C second temp	GIV Gai3 FP	HCMV NEC inh
> Cc1cc(C(=O)/C(C#N)=N/Nc2cccc(Cl)c2)n(C(C)(C)C)n1
→ 5.4*	3.8*	99	-27
> COc1ccc(N(CC(=O)NCc2ccc(F)cc2)S(=O)(=O)c2c(C)noc2C)cc1
→ 102	84	108	-14
> CC(C)NC(=O)NNc1c(Cl)cccc1Cl
→ 100	91	105	-21
> COc1cccc(-c2nnc(NC(=O)c3ccc(S(=O)(=O)N(Cc4ccccc4)C(C)C)cc3)o2)c1
→ 0.4*	0.3*	99	9
> CC(C)C(=O)N1N=C(c2ccccc2)CC1(O)C(F)(F)F (stereo unspecified)
→ 102	74	101	.
> O=C(Nc1ccc(NC(=O)c2cccnc2)cc1)c1cccnc1
→ 101	93	.	0
> COc1ccc(-c2noc(-c3cc(C4CC4)[nH]n3)n2)c(OC)c1
→ .	.	107	-4
> NC(=O)c1ccc(NC(=O)CCC(=O)N2CCN(S(=O)(=O)c3ccc(Cl)cc3)CC2)cc1
→ 94	96	.	-8
> CCN1CCN(CCNC(=O)C2CCCN(C(=O)c3[nH]c(C)c(C(=O)OC)c3C)C2)CC1 (stereo unspecified)
→ .	.	96	-20
> COc1cccc(C(=O)Nc2ccccc2C(=O)OCc2cc(=O)n3nc(C)sc3n2)c1
→ 96	89	103	.
> CCN1CCN(c2nc(Oc3ccc(OC)cc3)c3c(c2Cl)S(=O)(=O)CCN3CC2CCCO2)CC1 (stereo unspecified)
→ .	.	100	-14
> COc1ccc2c(c1)cc1c(=O)n(CC(=O)NC(C)CCc3ccccc3)nc(C)n12 (stereo unspecified)
→ 96	84	105	8
> Cn1ccsc1=NC(=O)c1ccc(S(C)(=O)=O)cc1
→ 106	93	.	-7
> COc1ccccc1-c1ccnc2[nH]n(-c3ccccc3)c(=O)c12
→ 92	87	103	-4
> COc1ccc(C(=O)Cn2c(=O)oc3ccc(C)cc32)cc1
→ 100	98	108	1
> Cc1cccc(NC(=O)CCn2c(C(F)(F)F)nc3cc(S(=O)(=O)N(C)C)ccc32)c1C
→ .	.	115	-10
> O=S(=O)(NC(c1ccccc1)c1ccccc1)c1ccc(-n2cnnn2)cc1
→ 82	83	98	-14
> NC(=O)CN1C(=O)COc2ccc(Cl)cc21
→ 88	76	101	-22
> CC(C)=NOC(=O)c1ccc(CSc2ccc(C(F)(F)F)cn2)o1
→ 93	87	98	-26
> CCc1nnc(NC(=O)CSc2nccn2Cc2ccccc2)s1
→ 87	92	97	.
> O=c1[nH]c(O)c(C=Nc2cc(C(F)(F)F)ccc2N2CCCCC2)c(=O)[nH]1
→ 107	102	.	-10
> COc1ccc(CCN2CC(O)=C(c3nc4ccc(C)cc4[nH]3)C2=N)cc1
→ .	.	110	-25
> CCOC(=O)CSc1nc(=O)cc(N)n1CCc1ccccc1
→ 95	105	110	34
> COc1ccc(CNC(=O)CCn2nc(C)c3c(C)n(-c4ccccc4)nc3c2=O)c(OC)c1
→ 94	94	100	.
> Oc1ccc(Oc2ccc(C(F)(F)F)cn2)cc1
→ 92	95	101	-5
> C#CCOC(=O)Nc1cnc(N2CCOCC2)c(C(F)(F)F)c1
→ 95	84	107	-21
> CC(C)(C)NC(=O)CSc1nc2ccc(N3C(=O)c4ccccc4C3=O)cc2s1
→ 86	71	.	-32
> COc1ccc(F)cc1-c1cc(N2CCN(S(=O)(=O)c3ccc(F)c(Cl)c3)CC2)ncn1
→ .	.	101	-28
> CCC1CCCCN1S(=O)(=O)c1ccc(S(=O)(=O)N2CCC(c3nnc(-c4ccccc4OC)o3)CC2)cc1 (stereo unspecified)
→ .	.	97	-23
> CCCn1c(=N)c(C(=O)NCc2ccco2)cc2c(=O)n3cc(C)ccc3nc21
→ 97	84	105	-93

# Entries shown so far that have a Cl atom:
# Each structure is followed by: Sa growth 42C	Sa growth 42C second temp	GIV Gai3 FP	HCMV NEC inh
> Cc1cc(C(=O)/C(C#N)=N/Nc2cccc(Cl)c2)n(C(C)(C)C)n1
→ 5.4*	3.8*	99	-27
> CC(C)NC(=O)NNc1c(Cl)cccc1Cl
→ 100	91	105	-21
> NC(=O)c1ccc(NC(=O)CCC(=O)N2CCN(S(=O)(=O)c3ccc(Cl)cc3)CC2)cc1
→ 94	96	.	-8
> CCN1CCN(c2nc(Oc3ccc(OC)cc3)c3c(c2Cl)S(=O)(=O)CCN3CC2CCCO2)CC1 (stereo unspecified)
→ .	.	100	-14
> NC(=O)CN1C(=O)COc2ccc(Cl)cc21
→ 88	76	101	-22
> COc1ccc(F)cc1-c1cc(N2CCN(S(=O)(=O)c3ccc(F)c(Cl)c3)CC2)ncn1
→ .	.	101	-28

# Further structures follow.
# Each structure is followed by: Sa growth 42C	Sa growth 42C second temp	GIV Gai3 FP	HCMV NEC inh
> CC1=CS/C(=C(/C#N)C(=O)N2CCCCC2)N1c1ccccc1
→ 113	93	99	-14
> C=CCNC(=O)CN1CCN(S(=O)(=O)c2ccccc2C(F)(F)F)CC1
→ 93	88	.	-13
> O=C(NC1CCCc2ccccc21)c1ccc(-n2nnc3cccnc32)cc1 (stereo unspecified)
→ .	.	126	-23
> O=C(CC1N=C2c3ccccc3N=C(SCc3cccc(F)c3)N2C1=O)NCc1cccs1 (stereo unspecified)
→ 61	77	98	.
> CC1=C/C(=N/NC(=O)Cc2csc(N3CCOCC3)n2)CC(C)(C)C1
→ 85	87	.	-16
> CCOC(=O)c1ccc(NC(=O)Cn2nc(C)c3nn(-c4ccc(Cl)cc4)c(C)c3c2=O)cc1
→ 90	88	100	.
> C=CCSc1n[nH]c(=O)n1-c1cccc(Cl)c1
→ 108	96	101	-13
> O=C(NCCS(=O)(=O)N1CCN(c2ccc(F)cc2)CC1)c1cc(=O)c2ccccc2o1
→ 95	86	103	.
> c1csc(-c2csc3nc(CN4CCOCC4)nc(Sc4nnc(C5CC5)o4)c23)c1
→ 101	87	.	-9
> CC(=O)Nc1ccc(S(=O)(=O)NCc2csc3ccccc23)cc1
→ 96	77	109	-12
> CC1=C(O)C(=O)OC1c1c(F)cccc1Cl (stereo unspecified)
→ 93	98	111	0
> CC1(C)CC(=O)C2=C(C1)N(c1ncn[nH]1)C(N)=C(C#N)C2c1ccsc1 (stereo unspecified)
→ 114	90	103	.
> O=C1c2ccccc2S(=O)(=O)N1Cc1cccc(Cl)c1
→ 104	43	.	-17
> CC1(C)CC(=O)C(C=NC(CO)(CO)CO)=C(O)C1
→ 110	98	.	3
> CC(=O)N1c2ccc(S(=O)(=O)N(C)c3ccc(C)cc3)cc2CC1C (stereo unspecified)
→ 100	99	100	8
> O=C(Nc1cccnc1Cl)c1ccc(Oc2ccccc2)cc1
→ 100	83	.	-21
> Cc1ccc(-n2nc(C)c3c(C)cc(=O)[nH]c32)cc1C
→ .	.	102	-27
> CCOC(=O)C1=C(c2ccccc2)N=C2SCC(=O)N2C1c1ccc(OCC)cc1 (stereo unspecified)
→ 98	82	108	.
> O=C(NCc1ccc(F)cc1)N1CCCC1c1ccc(F)cc1 (stereo unspecified)
→ .	.	98	-11
> O=C(Cn1c(=O)oc2ccccc21)NCc1ccccc1Cl
→ 122	87	100	.
> COc1cc(/C=C2/C(=O)ON=C2C)cc(Cl)c1OCc1ccc(C)cc1
→ 84	52	100	.
> O=c1c2ccccc2n2c(-c3ccc(F)c(F)c3)nnc2n1CCc1ccccc1
→ 103	87	95	-7
> CC1=C(C(=O)NC2CCCCC2)C2(CCN(S(C)(=O)=O)CC2)OC1=O
→ .	.	114	1
> CN(C)CCC(c1ccccc1)c1ccccn1 (stereo unspecified)
→ 99	108	101	14&18&-11&-13&-12
> CC(C)(C)c1ccc(OCC(=O)Nc2c(C(=O)c3ccc(F)cc3)oc3ccccc23)cc1
→ 94	87	107	-19
> CCn1c(=O)cc(OCC(=O)N2CCN(c3ccc(OC)cc3)CC2)c2ccccc21
→ 100	92	106	-11
> Cc1nc(-c2ccc(F)cc2)sc1CCNC(=O)c1ccc(Cl)cc1
→ .	.	101	-5
> C=C(C)CSc1nc(N2CCOCC2)c2c(c1C#N)CC(C)(C)OC2
→ .	.	102	-25
> CSc1nnc(CNC(=O)NCc2ccccc2)n1C(C)C
→ 86	89	100	22
> c1ccc2c(c1)COC(CN1CCOCC1)OC2
→ 102	96	105	-9
> CN(C)Cc1ccccc1C#N
→ 86	95	.	-18
> Cc1ccc(-c2noc(-c3nnn(CC(=O)Nc4ccc(C)cc4Cl)c3N)n2)cc1
→ 128	88	109	.
> O=C(Nc1ccccc1)N1CCn2cccc2C1c1ccccc1 (stereo unspecified)
→ 99	90	178	-28
> COc1cccc(NC(=O)c2ccc3c(=O)n4nc(Nc5ccccc5OC)sc4nc3c2)c1
→ 129	81	101	.
> O/N=C/c1c(F)cccc1F
→ 93	87	103	-42
> O=C(c1nn(Cc2ccccc2)c(=O)c2ccccc12)N1CCCCC1
→ 97	98	.	-23
> CCOC(=O)c1nc2ccccc2nc1NCc1ccncc1
→ .	.	106	-41
> CC1CCC(C(=O)NC(Cc2c[nH]c3ccccc23)C(=O)NCCc2ccc(S(N)(=O)=O)cc2)CC1 (stereo unspecified)
→ .	.	108	-13
> CCOC(=O)CCc1c(C)c(C#N)c2nc3ccccc3n2c1C
→ 97	88	.	-29
> Cc1ccccc1-c1noc(CCC(=O)Nc2cccnc2)n1
→ .	.	127	-37
> Cc1ccc(S(=O)(=O)c2nc(-c3ccccc3)oc2N2CCCCCC2)cc1
→ 98	91	102	-14
> CCC(C)n1c(=O)c2sccc2n2c(CCCC(=O)NCc3ccccc3Cl)nnc12 (stereo unspecified)
→ 102	90	105	.
> CCOC(=O)C(C)Oc1ccc(S(N)(=O)=O)cc1 (stereo unspecified)
→ 108	79	105	-4
> Cc1cccc(NC(=O)CSc2nc(=O)n(Cc3ccncc3)c3c2CCC3)c1C
→ 138	83	102	.
> COc1ccccc1CN(C)C(=O)c1cnc(C)cn1
→ 77	90	.	-19
> CCCCNC(=O)Cn1ncc2c(=O)oc3ccc(C)cc3c21
→ 96	89	99	-24
> CCOC(=O)c1scc(-c2ccccc2)c1S(=O)(=O)N1CCN(c2ccccc2OC)CC1
→ 98	88	103	.
> Cc1nn(CC(=O)Nc2ccccc2C(F)(F)F)c(=O)c2cccn12
→ 99	94	107	-9
> O=C(Cc1ccccc1Cl)NC(c1ccc(F)cc1)c1nnc(-c2ccccc2)o1 (stereo unspecified)
→ .	.	102	-16
> N#CCSc1nc(N)c(C#N)c(-c2cccc(F)c2)c1C#N
→ 77	74	.	-13
> COc1cc(-c2nnc(SCCOc3ccc(Cl)cc3)o2)cc(OC)c1OC
→ 99	94	99	2
> CC(C)(C)C(=O)COC(=O)C1CC(=O)N(c2ccccc2)C1 (stereo unspecified)
→ 90	88	.	9
> Cc1csc(NC(=O)c2cc(C(C)C)n(C3CCS(=O)(=O)C3)n2)n1 (stereo unspecified)
→ .	.	93	6
> O=C(CSc1nnc(Cc2cc(=O)[nH]c(=O)[nH]2)n1-c1ccc(Cl)cc1)N1CCCCC1
→ 88	86	100	.
> Cc1ccc(C(=O)O)cc1-n1c(C)ccc1-c1ccccc1
→ 105	92	103	6
> COc1cc(OC)cc(C(=O)N(C)CCOc2ccc(Cl)cc2)c1
→ 95	71	.	-13
> CN(C)c1ccc(/C=N/NC(=O)c2ccn(C)n2)cc1
→ 94	101	99	-51
> CC(=Nc1ccccc1C(F)(F)F)c1ccncc1
→ 98	87	105	-12
> C=CCn1c(SCC(=O)c2ccc(OC)cc2)nnc1-c1cccs1
→ 104	85	103	-4
> c1nc2ccc(Oc3ccc4nc[nH]c4c3)cc2[nH]1
→ 83	77	102	-24

# Other structures.
# Each structure is followed by: Sa growth 42C	Sa growth 42C second temp	GIV Gai3 FP	HCMV NEC inh
> O=C(N[C@@H](Cc1ccccc1)C(=O)N1CCN(c2ncccn2)CC1)c1ccc(Cl)cc1
→ 91	91	.	-18
> Cc1ccccc1C1CC(=O)NC2=C1C(=O)CCC2 (stereo unspecified)
→ 96	90	105&101	-6&3
> CN=C(NC)SC1CC(=O)N(c2ccccc2F)C1=O (stereo unspecified)
→ 105	83	.	-1
> CCCNC(=O)C1CCN(c2nn3cc(-c4ccc(F)cc4)nc3s2)CC1
→ 88	85	105	-30
> CCc1ccccc1NS(=O)(=O)c1ccc2oc(=O)c3ncn(C)c3c2c1
→ 97	97	101	.
> CCn1c(=O)cc(Nc2ccc(C)c(C)c2)[nH]c1=O
→ 2.4*	2.9*	102	10
> COc1csc2nc(C)cc(C)c12
→ 98	83	101	-24
> COC(=O)c1cccc(NC(=O)C(C)(C)C)c1
→ 109	86	97	-7
> O=C(CN1C(=O)/C(=C/c2ccccc2F)Oc2ccccc21)NCCCN1CCCC1
→ 96	68	104	-70
> O=C(OCc1nc2ccccc2s1)c1cccc(S(=O)(=O)N2CCCC2)c1
→ 98	95	.	-24
> C=CCn1c(CC(C)(C)C)nc2ccccc21
→ 99	101	101	-6
> Cc1ccc(S(=O)(=O)NCCn2c(-c3ccc(F)cc3)nc3cccnc32)c(C)c1
→ .	.	114	-2
> Cc1ccc(C)c(NC(=O)Cn2c(=O)nc(-c3ccccc3)c3ccccc32)c1
→ 95	89	100	.
> C=CCN1C(=O)C2(/C(=C(/O)c3ccc(C)c(F)c3)C(=O)C(=O)N2CCCN2CCOCC2)c2ccccc21 (stereo unspecified)
→ 91	102	104	2
> O=C(CCn1nnc2cc(S(=O)(=O)N3CCCC3)ccc21)N1CCN(c2ccccn2)CC1
→ .	.	112	15
